Screening results as filed in PubChem.
UCH37 inh: blocks the human deubiquitinase UCH37 | Q9Y5K5 | purified proteasome/UCH37, Ub-AMC cleavage fluorescence | actives 0.33% (n = 330,000) | inhibition, % (test concentration not listed);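 active = mean of two replicates above 20%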;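 also: 0% = compound-free wells with enzyme and 100% = wells lacking proteasome; stock transfer was 100 nL into about 20 µL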
Target sequence (Q9Y5K5 whole entry, looked up): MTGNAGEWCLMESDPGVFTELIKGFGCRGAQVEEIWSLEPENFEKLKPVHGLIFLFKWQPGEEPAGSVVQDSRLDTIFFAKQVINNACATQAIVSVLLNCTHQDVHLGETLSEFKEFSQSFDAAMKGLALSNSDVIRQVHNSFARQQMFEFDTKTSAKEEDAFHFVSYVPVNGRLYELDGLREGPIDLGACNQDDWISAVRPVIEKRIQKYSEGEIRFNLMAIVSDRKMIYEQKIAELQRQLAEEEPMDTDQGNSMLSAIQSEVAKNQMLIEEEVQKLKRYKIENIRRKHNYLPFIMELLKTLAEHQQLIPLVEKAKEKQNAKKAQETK
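Assay system: Proteasome-bound UCH37. Buffer or medium: pH 7.4 Tris-HCl (50 mM) with ovalbumin, ATP-MgCl2, DTT. Incubation: 30 min preincubation with enzyme, 25 min cleavage at room temperature. Measured by: fluorescence, ex 355 nm, em 460 nm. Read-out basis: percent inhibition. Control set: wells without proteasome as full block, compound-free enzyme plus substrate as uninhibited.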
E coli growth: E. coli growth inhibition | Escherichia coli growth, OD600, 23 h; stronger effect = lower value | OD600 absorbance (no concentration beside the values) | actives 0.21% (n = 330,000) | AID 1053175;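 active = OD600 absorbance below the run mean of sample wells minus 3.6 SD, in any replicate, cut at about 0.56 in these data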;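 also: stock transfer was 300 nL into about 60 µL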
T cruzi repl: blocks replication of Trypanosoma cruzi; T. cruzi beta-gal in NIH3T3, luminescence, 90 h; inhibition, % (test concentration not listed); actives 1.4% (n = 300,000);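 active = mean inhibition across valid replicates above about 55%, limit read from the data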;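 also: signal also drops with host cell toxicity which is not excluded here; 0% = plate median of DMSO wells and 100% = zero luminescence signal; higher percent means less beta-gal luminescence so fewer parasites; stock transfer was 50 nL into about 50 µL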
FGF22 binding: shifts melting point of recombinant human FGF22 | Q9HCT0 | recombinant FGF22 thermal shift, SYPRO orange fluorescence; percent of sucrose octasulfate shift, DMSO zero | calls only at 9.99 µM | actives 1.5% (n = 340,000) | AID 651658;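 active = melting point raised past a set limit in the mean and every replicate; three in four hits are not shown here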
Target sequence (Q9HCT0 whole entry, looked up): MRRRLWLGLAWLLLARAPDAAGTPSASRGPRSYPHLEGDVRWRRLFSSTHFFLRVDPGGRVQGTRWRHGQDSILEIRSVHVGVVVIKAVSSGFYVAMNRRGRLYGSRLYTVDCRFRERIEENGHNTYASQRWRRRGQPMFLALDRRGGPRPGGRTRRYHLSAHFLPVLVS
rRNA inh HTS: inhibits bacterial ribosomal RNA function over humanized ribosomes. GFP signal change (wild-type ribosome), % (no concentration beside the values). AID 720706. actives 1.6% (n = 350,000). E. coli WT GFP vs humanized-ribosome RFP mutants, fluorescence, 24 h; stronger effect = lower value; DMSO median 0, no signal -100;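 active = significant combined selectivity score with lowered wild-type GFP, culture density cut under 30%, mutant RFP and density less affected; inactive = any of these conditions unmet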; also: one replicate is shown; some compounds called inactive have numbers as strong as hits
Bfl-1 A1 inh: inhibitors of the anti-apoptotic protein A1, read as caspase activation; caspase activation, % (test concentration not listed); MEF A1-2A-BIM cells, Caspase-Glo 3/7 luminescence, 3 h; percent of clofoctol response, vehicle zero; AID 2462; actives 0.066% (n = 330,000);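 active = over half of replicate activation scores above 10%, or exactly half above 10 with the replicate mean above 10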;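 also: wells of about 30 µL received 50 nL stock; many hits fall short of the cut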
MLL AF4-AF9 inh: MLL-AF4/AF9 protein interaction inhibition | AlphaScreen, biotin-AF4 peptide binding to FLAG-AF9 | AID 651704 | actives 0.47% (n = 350,000) | inhibition, % at 10 µM | P42568;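 active = every replicate reaching a set inhibition limit, whatever the replicate mean, cut at about 25% in these data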;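 also: 0% = plate neutral control median and 100% = total signal loss; the record names both 10 and 1 µM as test concentration; the first replicate is given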
Target sequence (P42568 whole entry, looked up): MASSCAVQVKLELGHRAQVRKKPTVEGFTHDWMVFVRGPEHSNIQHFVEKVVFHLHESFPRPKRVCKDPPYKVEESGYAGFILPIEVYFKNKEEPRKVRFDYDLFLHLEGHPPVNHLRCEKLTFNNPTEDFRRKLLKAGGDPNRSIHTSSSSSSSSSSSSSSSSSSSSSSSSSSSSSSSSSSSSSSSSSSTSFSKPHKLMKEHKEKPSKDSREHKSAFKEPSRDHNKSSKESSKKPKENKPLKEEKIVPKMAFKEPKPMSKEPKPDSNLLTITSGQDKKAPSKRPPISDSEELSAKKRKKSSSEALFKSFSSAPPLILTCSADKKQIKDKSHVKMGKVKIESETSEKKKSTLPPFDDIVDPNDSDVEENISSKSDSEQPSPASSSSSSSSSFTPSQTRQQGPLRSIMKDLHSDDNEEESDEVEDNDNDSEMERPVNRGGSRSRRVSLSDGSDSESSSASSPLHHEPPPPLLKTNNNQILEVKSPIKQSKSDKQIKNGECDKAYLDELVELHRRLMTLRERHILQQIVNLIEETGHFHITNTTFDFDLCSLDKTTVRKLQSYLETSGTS
Beta apoptosis: beta cell apoptosis inhibition; INS-1E cytokine-induced death, ATP luminescence, 48 h; percent of positive-control rescue, neutral wells zero; protection from apoptosis, % (no concentration beside the values); actives 0.8% (n = 300,000); AID 435005;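 active = all replicates at 75% or more, or half of them and the mean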;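 also: 0% = cytokine-treated negative control wells and 100% = positive control rescue; higher means more ATP so stronger rescue from cytokine killing; wells of about 40 µL received 100 nL stock; the first replicate is given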
rRNA inh HTS OD600: also measured in rRNA inh HTS; calls as there; OD600 change, %; measured here: OD600 growth;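 optical density of the mix in the first replicate; 0 = DMSO median and -100 = no signal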
rRNA inh HTS RFP: also measured in rRNA inh HTS; calls as there; RFP signal change, %; measured here: RFP humanized mutant strains;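 first replicate; 0 = DMSO median and -100 = no signal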
* = called active by the depositor; i = inactive; · = not tested or not shown. These rows are one share of the data; count on the stated rates, not on these rows.

SMILES	UCH37 inh	E coli growth	T cruzi repl	FGF22 binding	rRNA inh HTS	rRNA inh HTS OD600	rRNA inh HTS RFP	Bfl-1 A1 inh	MLL AF4-AF9 inh	Beta apoptosis
O=C(COC(=O)c1cc(-c2ccccc2)nc2ccccc12)NC1CC1	-42.9	0.641	·	i	-0.3	4.8	-2.6	-0.2	-1.3	2.9
Cc1nc(SCC(=O)N(C)C2CCS(=O)(=O)C2)c(C#N)c(C)c1C (centres undefined)	-1.6	0.692	·	i	1.6	3.1	-2.4	-0.9	-4.3	-1.8
Nc1cccc2c1C(=O)N(C(=O)/C=C/c1ccc(F)cc1)C2=O	-112.0	0.664	-5.8	·	16.0	13.5	-2.8	-0.1	-0.8	-1.4
C=CCn1c(O)c(N=Nc2ccccc2C)c2ccccc21	4.1	0.67	-10.0	i	9.3	5.3	1.9	-0.9	2.3	-3.0
Cc1ccc(S(=O)(=O)CC(=O)Nc2ccc3nc(C)sc3c2)cc1	2.4	0.675	-7.8	i	-18.4	-8.6	0.6	0.9	1.5	-7.0
O=C(CNS(=O)(=O)c1ccc(Cl)cc1)N1CCN(c2ccc(F)cc2)CC1	1.5	0.707	·	i	-1.3	-18.0	3.6	-0.1	4.3	-6.3
OCCN(CCO)c1ccc(C(c2ccccc2Cl)c2ccc(N(CCO)CCO)cc2Cl)c(Cl)c1	0.2	0.68	43.8	·	·	·	·	1.1	·	-2.6
CS(=O)(=O)N(Cc1ccccc1Cl)c1ccc(C(=O)N2CCCC2)cc1	0.7	0.701	-14.4	i	-2.0	-4.1	-0.7	0.6	-4.0	12.1
O=C(c1ccc(Cl)cc1)N1CCOc2ccccc21	4.7	0.643	4.9	i	-7.0	-8.1	-4.5	-0.3	-32.0	41.0
Cc1ccc(-c2noc(CCC(=O)Nc3cccc(C#N)c3)n2)cc1	-1.7	0.75	-13.2	·	·	·	·	0.7	·	1.6
COC(=O)C1=C(COc2ccccc2)NC(=O)NC1c1ccc2ccccc2c1 (centres undefined)	4.5	0.711	0.4	i	1.8	5.2	-6.3	-0.7	-1.3	5.5
Cc1ccc(-c2csc(NC(=O)CCNC(=O)c3ccc(Cl)cc3)n2)cc1	1.2	0.739	-6.4	i	0.8	-2.2	-1.4	-0.3	-2.6	-0.6
COCCn1c(=NC(=O)c2sc3ccccc3c2Cl)sc2cc(S(N)(=O)=O)ccc21	·	·	27.7	i	11.2	5.6	-0.5	0.0	-0.1	4.6
COc1cc2c(cc1OC)CN(Cc1ccc(F)cc1)CC2	-430.4	0.686	-7.1	i	-2.6	9.0	-0.2	-0.3	-21.3	1.1
O=C1Nc2ccccc2N(O)N1c1ccc(S(=O)(=O)Nc2ccccn2)cc1	1.9	0.654	9.5	i	16.4	11.6	2.2	0.8	-1.8	-0.8
O=C(NN=C1CCC(c2ccccc2)CC1)c1ccccc1-n1cccc1 (centres undefined)	-0.6	0.685	0.9	·	·	·	·	0.7	·	-2.6
Cc1cc2cc(CNC(=O)C3CCCC3)ccc2n1C	0.5	0.728	10.7	i	-1.7	11.5	52.1	1.4	0.8	-2.3
CCCOCC1CC(CCc2nc(=S)[nH][nH]2)C(=O)O1 (centres undefined)	-0.5	0.635	3.6	i	9.4	17.9	5.2	-0.2	-20.3	0.3
Cc1onc(-c2ccccc2)c1C(=O)NCC1COc2ccccc2O1 (centres undefined)	0.3	0.773	-2.6	·	·	·	·	0.2	·	-1.5
COc1cccc(COC(=O)c2cc(=O)[nH]c3ccc(S(=O)(=O)N4CCOCC4)cc23)c1OC	0.4	0.671	-8.3	·	-3.7	4.9	5.3	-1.1	-2.4	-5.0
CCOC(=O)C1(Cc2ccccc2C)CCCN(C(=O)c2ccccn2)C1 (centres undefined)	-2.0	0.698	-9.5	i	11.7	9.2	0.2	0.3	-2.1	-7.5
COc1ccccc1CC(=O)Nc1sc2c(c1C(N)=O)CCCC2	-7.4	0.658	13.2	i	-0.5	2.3	-1.2	0.0	2.4	0.3
COc1ccccc1N1CCN(c2ncc(C(=O)N3CCN(c4cccc(Cl)c4)CC3)c3ccccc23)CC1	-239.3	0.749	61.5*	i	18.8	12.9	3.6	-0.3	3.5	88.7*
COc1ccc(CCn2c(O)cc3nn(-c4nc5ccccc5s4)c(=O)c-3c2C)cc1	3.4	0.618	-3.8	i	-17.5*	8.0*	1.0*	-0.5	-1.0	-8.7
Cc1cccc(NC(=S)N2CCN(C(=O)C3CCCO3)CC2)c1 (centres undefined)	-1.2	0.695	-12.5	i	4.0	-3.1	-3.5	0.2	4.8	-2.7
Clc1ccc(CSc2nnc(Cn3cnc4ccccc43)o2)cc1	6.0	0.704	-4.1	·	·	·	·	1.0	·	32.4
Cc1ccc(NC(=O)CSc2nnc(NC(=O)C3CC3)s2)cc1	4.0	0.649	-5.6	i	5.8	7.2	0.7	-0.6	-3.2	-8.5
CC(C)CC(=O)N1CCN(Cc2cccc(F)c2)CC1	1.3	0.745	2.9	·	·	·	·	-0.5	·	-0.6
CCCOc1ccc(Cc2c(COCC)[nH]c(=S)[nH]c2=O)cc1	0.5	0.671	·	i	-1.9	-7.1	0.6	·	-2.0	·
Cc1cc(C(=O)NN)c(C)o1	2.1	0.689	-9.9	i	20.7	22.4	4.4	0.4	-2.6	-0.4
CCOc1ccccc1/C=C(\C(=O)O)c1ccc(S(=O)(=O)N2CCCCC2)s1	5.6	0.679	·	i	·	·	·	0.5	-2.1	-4.4
CCCCNc1nc2ccccc2nc1NS(=O)(=O)c1cccs1	-2.1	0.666	-0.8	·	·	·	·	0.2	·	2.2
Cn1cc([N+](=O)[O-])c(C(=O)NCc2cc3cc(Cl)ccc3[nH]2)n1	6.0	0.635	-33.1	·	·	·	·	-0.2	·	-21.5
CC1CCc2c(C(=O)Nc3nccs3)csc2C1 (centres undefined)	1.1	0.665	-21.7	·	·	·	·	-0.9	·	2.9
CCCc1ccc(OCc2nc(-c3ccc(NC(=O)c4ccco4)cc3)no2)cc1	2.8	0.722	15.2	·	·	·	·	-0.4	·	12.2
CC1CCCCC12NC(=O)N(CC(=O)Nc1ccc(N3CCCCC3)cc1)C2=O (centres undefined)	4.8	0.693	·	i	6.6	3.2	2.3	·	6.1	·
O=C(COC(=O)C1C2CC3OC(=O)C1C3C2)Nc1ccc(Cl)cc1 (centres undefined)	1.8	0.702	-0.4	i	2.7	11.1	-3.9	0.5	-5.5	-0.9
O=C(CCCSc1nnc(SCCCC(=O)c2ccc(F)cc2)s1)c1ccc(F)cc1	3.7	0.692	-23.4	·	·	·	·	0.7	·	4.3
CCCCCOC(=O)Nc1ccc(S(=O)(=O)Nc2cccc([N+](=O)[O-])c2)cc1	4.6	0.644	-8.5	·	-2.0	2.9	-4.5	0.5	0.6	-1.7
O=C(CCNS(=O)(=O)c1ccccc1)OCc1nc2ccsc2c(=O)[nH]1	-2.6	0.689	-4.7	i	2.1	-3.8	-0.2	0.1	-3.5	-1.5
COc1ccc(C(=O)N2CCC(CCC(=O)Nc3cccc(C)c3)CC2)cc1	2.8	0.703	-4.0	i	-3.9	-12.9	-2.8	1.2	0.6	4.6
Cc1cc(NC(=O)CCN2CCN(CCO)CC2)ccc1Br	2.6	0.691	1.4	i	3.4	2.0	-2.7	0.1	7.8	-4.3
Cc1cccc(NC(=O)CNC(=O)CN2C(=O)NC3(CCCc4ccccc43)C2=O)c1C (centres undefined)	1.2	0.724	-1.9	i	5.1	-7.3	-0.7	-0.5	-2.0	-1.0
COc1ccc(OC)c(NC(=O)COC(=O)c2nc(Cl)ccc2Cl)c1	0.8	0.674	-19.9	i	8.2	-2.5	3.6	1.2	-2.3	-1.2
CCOc1cc(/C=C2\C(=O)N(CCC#N)N=C2C)ccc1OCC(N)=O	3.8	0.623	-7.1	i	13.4	12.9	-0.6	0.4	-3.6	-7.7
Cc1ccc(Sc2nc([N+](=O)[O-])nn2C)cc1	3.0	0.651	49.4	i	-9.2	-6.5	-3.7	0.0	0.0	2.4
COc1ccc2sc(-c3ccccc3OC)c(-c3ccc(OC)c(F)c3)c2c1	-0.5	0.842	·	i	5.8	-3.2	4.6	1.1	-15.0	-4.0
COC(=O)c1[nH]c2ccccc2c1CN1CCOCC1	0.2	0.712	-0.8	i	5.7	10.9	1.0	0.6	0.7	-0.2
CCc1ccc(C2C(C#N)=C(N)N(N(C)C)C3=C2C(=O)CCC3)cc1 (centres undefined)	2.3	0.686	8.5	i	1.4	3.2	3.8	0.7	-1.9	-5.2
O=C(CSc1nc2sc3c(c2c(=O)[nH]1)CCC3)NCCO	-4.3	0.685	-6.5	i	11.1	7.4	4.7	-0.1	-0.7	1.8
CCN1C(=O)c2n[nH]c(C(=O)OC)c2C1=O	5.7	0.685	-12.6	·	·	·	·	-0.2	·	0.5
O=C1/C(=C/c2ccccc2)SC(=S)N1N1C(=O)C2CC2C1=O (centres undefined)	·	·	7.3	i	15.1	10.1	2.0	-0.2	-1.2	-0.6
CCC(=O)NNC(=O)c1c(O)c2ccccc2[nH]c1=O	·	·	-2.1	i	14.7	8.6	-0.2	0.2	0.2	-0.7
NNc1nc(-c2ccccc2)nc(-c2ccccc2)c1Br	2.2	0.631	-1.1	i	7.7	7.2	2.4	0.6	-0.8	1.1
CCCn1c(N2CCN(C(=O)Nc3ccc(Cl)cc3)CC2)nc2ccccc21	1.9	0.604	18.9	i	-26.2*	-11.4*	2.2*	-0.4	0.5	1.4
CSc1ccccc1NC(=O)Cn1nc([N+](=O)[O-])c(Cl)c1C	0.5	0.679	15.4	i	27.5	7.3	0.6	0.7	-0.2	·
COc1cc(/C=N/NC(=O)c2cc[n+]([O-])cc2)cc(OC)c1OC	·	·	7.9	i	1.3	4.0	-2.0	-0.4	0.1	-1.6
Cc1cc(C)cc(N(C(=O)CCC(=O)Nc2cc(C)on2)C(C(=O)NC2CCCC2)c2ccco2)c1 (centres undefined)	2.1	0.639	0.3	i	16.5	-0.9	-0.7	-0.4	2.3	-2.3
O=C(c1ccccc1F)N1CCN(C(=O)C(c2ccccc2)c2ccccc2)CC1	0.6	0.683	-5.4	i	0.7	-4.1	0.7	0.0	0.7	0.0
O=C(Cn1c2ccc(F)cc2c2nc3n(c(=O)c21)CCS3)Nc1ccc(Cl)cc1F	-89.8	0.708	19.1	i	13.2	12.8	2.5	0.2	-1.3	15.3
CCOCCN(C(=O)c1ccccc1Cl)c1cccc(C)c1C	2.4	0.68	0.0	i	3.6	7.6	3.7	0.2	-3.8	·
COc1ccc(-c2cc(C(=O)N3CCN(c4ccccc4)CC3)no2)cc1OC	3.9	0.675	2.4	·	·	·	·	-0.9	·	0.1
O=C(Nc1ccc(-c2csc(Nc3ccccc3)n2)cc1)c1ccccc1	1.9	0.737	8.5	i	-4.2	-0.9	-6.1	1.0	-8.9	11.1
